High-throughput results deposited in PubChem BioAssay by Broad Institute.
Vaccinia inh: blocks a specific stage of Vaccinia orthopoxvirus infection, primary screen, cell-based, single point. Vaccinia-infected cells, mCherry/Venus stage reporter fluorescence; stronger effect = lower value; some inactives read as strong as hits. activity change (mCherry), % (no concentration beside the values). 0.01% of 89,000 active;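 active = mCherry past -33% and 40 or more points under the early reporter, replicates agreeing; inconclusive = past -33% without that gap or agreement; tested in A549 cells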;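 note: scaled between vehicle wells and reference inhibitor wells; 23 nL library stock went into each well; one replicate is shown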
Vaccinia inh Venus: second read-out of Vaccinia inh, no call of its own (marks repeat the call); activity change (Venus), %; measured here: Venus reporter, other viral stage;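 negative = less Venus signal; first of two replicates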
Numbers without * were called inactive; ? = inconclusive; . = not tested or not shown; & = joins results of further samples.

Structure	Vaccinia inh	Vaccinia inh Venus
C[C@@H]1CN([C@@H](C)CO)C(=O)c2cccc(NS(=O)(=O)c3ccc(Cl)cc3)c2O[C@H]1CN(C)Cc1ccc(C(=O)Nc2ccccc2N)cc1	11.9	11.4
C/C=C/c1ccc([C@@H]2[C@H](CO)N(S(C)(=O)=O)C23CN(C(=O)CC)C3)cc1	5.5	10.9
CCNC(=O)C[C@H]1CC[C@@H]2[C@H](COC[C@@H](O)CN2C(=O)C2CC2)O1	1.6	2.6
COc1ccccc1-c1ccc2c(c1)[C@@H]1[C@@H](CCN1C(=O)C1CC1)[C@H](CO)N2	-16.0	-18.6
Cc1ccc(S(=O)(=O)Nc2ccc3c(c2)C(=O)N([C@@H](C)CO)C[C@@H](C)[C@H](CN(C)Cc2ccc4c(c2)OCO4)OCCCC[C@@H](C)O3)cc1	?	.
O=C(CN1CCOCC1)N1CCCCN2[C@@H](CO)[C@@H](c3ccc(-c4ccccc4)cc3)[C@@H]2C1	16.7	12.2
COc1ccccc1S(=O)(=O)N[C@H]1C=C[C@H](CC(=O)NCc2cccc(F)c2)O[C@H]1CO	1.7	-4.8
C/C=C/c1ccc([C@@H]2[C@H](C#N)N(C(=O)CN3CCOCC3)[C@H]2CO)cc1	-6.9	-10.1
CN(C)CCCNC(=O)C[C@@H]1C=C[C@H](NC(=O)c2ccccc2F)[C@H](CO)O1	-3.6	6.1
C[C@H]1CN([C@@H](C)CO)C(=O)c2cc(NC(=O)C3CCCCC3)ccc2O[C@@H]1CN(C)CC1CC1	-6.6	-1.3
C[C@H](NC(=O)C[C@@H]1CC[C@H]2[C@@H](COC[C@H](O)CN2C)O1)c1ccccc1	14.4	10.2
O=C(NCc1ccc(F)cc1)[C@@H]1[C@@H](CO)[C@@H]2Cn3c(cccc3=O)[C@@H]2N1CCC(F)(F)F	-4.0	2.9
OC[C@@H]1[C@@H](c2ccc(-c3ccccc3F)cc2)[C@H]2CN(Cc3ccncc3)CCCCN12	-12.7	-16.8
COc1ccc(C#Cc2ccc3c(c2)[C@H]2[C@H](CCN2S(=O)(=O)c2cccc(OC)c2)[C@H](CO)N3C)cc1	6.7	6.6
C[C@H]1CCCCO[C@H](CN(C)C(=O)c2ccccc2)[C@@H](C)CN([C@@H](C)CO)C(=O)c2cc(NC(=O)C3CCCCC3)ccc2O1	-33.9	-41.1
O=C(C[C@H]1CC[C@@H](NC(=O)Cc2ccccn2)[C@@H](CO)O1)NCCc1ccncc1	8.0	12.3
C[C@@H]1CN([C@@H](C)CO)C(=O)Cc2cc(NC(=O)Cc3cn(C)c4ccccc34)ccc2O[C@@H]1CN(C)Cc1ccccc1	-20.8	-5.2
C[C@H]1CN([C@@H](C)CO)C(=O)c2cc(NS(=O)(=O)c3ccc(F)cc3)ccc2O[C@@H]1CN(C)CC1CC1	-28.4	-37.6
CCC(=O)N1C[C@@H](C)[C@@H](OC)CN(C)C(=O)c2cc(NC(=O)c3ccccc3)ccc2OC[C@@H]1C	18.5	12.2
O=S(=O)(NCC[C@H]1CC[C@@H](NS(=O)(=O)c2cccc(F)c2)[C@H](CO)O1)c1cccc(F)c1	15.5	18.0
Cc1noc(C)c1S(=O)(=O)N(C)C[C@H]1Oc2ccc(NC(=O)Nc3ccc4c(c3)OCO4)cc2CC(=O)N([C@@H](C)CO)C[C@H]1C	-1.7	4.4
O=C(NCC[C@H]1CC[C@H](NC(=O)C2CC2)[C@@H](CO)O1)Nc1ccc(C(F)(F)F)cc1	-3.1	3.4
COc1ccc(CN(C)C[C@@H]2Oc3ccc(NC(=O)Nc4cccc5ccccc45)cc3CC(=O)N([C@@H](C)CO)C[C@@H]2C)cc1	-21.0	-14.8
C[C@@H]1CCCCO[C@H](CN(C)Cc2ccccc2)[C@@H](C)CN([C@H](C)CO)C(=O)c2cc(NS(C)(=O)=O)ccc2O1	12.9	9.8
CCCN(C)C[C@@H]1Oc2cc(C#C[C@@H](C)O)ccc2S(=O)(=O)N([C@H](C)CO)C[C@@H]1C	10.0	8.2
C[C@@H]1CN([C@H](C)CO)C(=O)c2cc(NC(=O)C3CCCCC3)ccc2O[C@@H](C)CCCCO[C@@H]1CN(C)Cc1ccc(Cl)c(Cl)c1	-29.8	-7.2
O=C(C[C@@H]1CC[C@@H]2[C@H](COC[C@@H](O)CN2Cc2cccc(C(F)(F)F)c2)O1)NCCc1ccccc1	-24.3	-22.0
C[C@@H]1CCCCO[C@@H](CN(C)C(=O)CCCN(C)C)[C@@H](C)CN([C@H](C)CO)C(=O)c2cc(N(C)C)ccc2O1	2.1&10.6	8.8&4.6
C[C@@H]1CN([C@@H](C)CO)C(=O)c2cc(NC(=O)NC3CCCCC3)ccc2O[C@@H]1CN(C)C(=O)Nc1cccc2ccccc12	-1.4	2.2
C/C=C/c1ccc([C@@H]2[C@H](CO)N(C(C)=O)[C@H]2CNC(=O)CC2CC2)cc1	8.2	7.7

Structure	Vaccinia inh	Vaccinia inh Venus
CNC[C@H]1Oc2c(NS(=O)(=O)c3ccc(Cl)cc3)cccc2C(=O)N([C@@H](C)CO)C[C@@H]1C	5.9	5.9
CN1C(=O)c2cc(NC(=O)c3ccc(F)c(F)c3)ccc2OC[C@H]2O[C@@H](CC(=O)N[C@@H]3CCN(Cc4ccccc4)C3)CC[C@H]21	?	.
CC(C)CC#Cc1ccc([C@H]2[C@H]3CN(C(=O)c4ccc5c(c4)OCO5)CCCCN3[C@H]2CO)cc1	?	.
CCNC(=O)[C@H]1[C@H](CO)[C@H]2Cn3c(ccc(C4=CCCCC4)c3=O)[C@H]2N1CC1CC1	7.3	-6.7
CN1C(=O)c2cc(NC(=O)Cc3cccs3)ccc2OC[C@H]2O[C@@H](CC(=O)NCC3CCCCC3)CC[C@H]21	-28.9	-16.4
COc1cccc(NC(=O)N[C@@H]2CC[C@H](CC(=O)Nc3ccc(-c4ccccc4)cc3)O[C@H]2CO)c1	?	.
C[C@@H]1CN([C@@H](C)CO)C(=O)c2cc(NC(=O)Nc3ccc(F)cc3)ccc2O[C@@H](C)CCCCO[C@@H]1CN(C)S(=O)(=O)c1ccc(Cl)cc1	13.2	17.5
C[C@H]1CCCCO[C@H](CN(C)S(=O)(=O)c2ccc(Cl)cc2)[C@@H](C)CN([C@@H](C)CO)C(=O)c2cc(NC(=O)NC3CCCCC3)ccc2O1	-18.1	-9.9
O=C(C1CCCC1)N1C[C@@H]2[C@H](c3ccccc31)[C@H](CO)N2C(=O)c1cccnc1	8.9	7.1
C[C@@H]1CN([C@@H](C)CO)C(=O)c2cc(NC(=O)C3CCCCC3)ccc2O[C@@H](C)CCCCO[C@@H]1CN(C)S(=O)(=O)c1ccc(F)cc1	-0.7	6.3
O=C(C1CCC1)N1CC[C@@H]2[C@H](CO)Nc3ccc(C#Cc4ccc(F)cc4)cc3[C@@H]21	-17.5	-11.9
CCS(=O)(=O)Nc1ccc2c(c1)C(=O)N(C)C[C@@H](OC)[C@H](C)CN(CCC(F)(F)F)[C@H](C)CO2	-4.6	-0.1
C[C@H]1CN([C@@H](C)CO)C(=O)c2cc(C#Cc3ccccc3F)cnc2O[C@@H]1CN(C)C(=O)Cc1ccccc1	-13.9	-11.4
CCCN(C)C[C@H]1Oc2ncc(-c3cccnc3)cc2C(=O)N([C@H](C)CO)C[C@@H]1C	22.1	9.5
COCC#Cc1cnc2c(c1)C(=O)N([C@H](C)CO)C[C@@H](C)[C@@H](CN(C)S(=O)(=O)c1cccc(OC)c1)O2	18.0	1.3
CO[C@@H]1CN(C)C(=O)c2cc(NC(C)=O)ccc2OC[C@@H](C)N(S(=O)(=O)c2cn(C)cn2)C[C@H]1C	7.3	7.6
CC(C)NC(=O)N(C)C[C@H]1OCCCC[C@@H](C)Oc2ccc(NS(=O)(=O)c3ccc(Cl)cc3)cc2C(=O)N([C@H](C)CO)C[C@H]1C	-12.6	-10.1
C[C@@H]1CN([C@@H](C)CO)C(=O)c2cc(C#CC3CC3)cnc2O[C@H]1CN(C)Cc1ccncc1	6.9	4.6
C[C@@H]1CCCCO[C@@H](CN(C)S(=O)(=O)c2cccs2)[C@@H](C)CN([C@H](C)CO)C(=O)c2cc(NC(=O)Nc3ccc(F)cc3)ccc2O1	26.5	17.3
COc1ccc(S(=O)(=O)Nc2ccc3c(c2)C(=O)N([C@@H](C)CO)C[C@@H](C)[C@H](CN(C)C(=O)C2CCCCC2)OCCCC[C@@H](C)O3)cc1	-6.7	-12.0
CN(C)C(=O)c1cccc(-c2ccc3c(c2)[C@H]2[C@H](CCN2C(=O)C2CCCC2)[C@@H](CO)N3)c1	-23.1	-21.5
O=C(C[C@@H]1CC[C@@H]2[C@H](COC[C@@H](O)CN2Cc2ccc(F)cc2)O1)N1CCc2ccccc2C1	-20.7	-7.2
N#C[C@H]1[C@@H](c2ccccc2-c2cccc(F)c2)[C@H](CO)N1C(=O)C1CCCC1	-13.6	-1.5
CCC(=O)Nc1ccc2c(c1)OC[C@@H](C)N(Cc1nccs1)C[C@H](C)[C@@H](OC)CN(C)C2=O	13.2	15.0
COc1ccc(NC(=O)N(C)C[C@@H]2OCCCC[C@H](C)Oc3ccc(NS(=O)(=O)c4ccc(C)cc4)cc3C(=O)N([C@H](C)CO)C[C@@H]2C)cc1	-14.0	-15.1
C[C@H](CO)N1C[C@H](C)[C@@H](CN(C)C(=O)Cc2ccncc2)Oc2ncc(C#CC3(O)CCCC3)cc2C1=O	1.4	3.1
C[C@@H]1CN([C@H](C)CO)S(=O)(=O)c2ccc(C#Cc3cccnc3)cc2O[C@H]1CN(C)C	12.2	7.0
O=C(O)[C@@H]1[C@@H](CO)[C@@H]2Cn3c(ccc(-c4ccncc4)c3=O)[C@H]1N2C(=O)C1CCCC1	12.4	12.5
O=C(C[C@@H]1CC[C@@H]2[C@H](COC[C@H](O)CN2CC2CCCC2)O1)NCc1ccc(Cl)cc1	?	.
CN1CCN(C(=O)C[C@H]2CC[C@H]3[C@@H](COC[C@@H](O)CN3C(=O)C3CCOCC3)O2)CC1	24.4	16.9

Value order: Vaccinia inh, Vaccinia inh Venus
> Cc1cccc(-c2ccc([C@@H]3[C@H]4CN(S(=O)(=O)c5cccc(F)c5)CC(=O)N4[C@H]3CO)cc2)c1
  ?, .
> CC(C)(C)[S@@](=O)N1Cc2cc(C(=O)NCc3ccccc3F)nc(-c3cccc(-c4cncnc4)c3)c2[C@H]1CCO
  -12.6, 4.3
> C[C@@H]1CN([C@H](C)CO)C(=O)c2c(c3ccccc3n2C)-c2ccccc2CO[C@@H]1CN(C)S(=O)(=O)c1ccccc1C#N
  -34.9, -16.5
> COc1ccc(S(=O)(=O)N(C)C[C@H]2OCCCC[C@H](C)Oc3ccc(NC(=O)CCC(F)(F)F)cc3C(=O)N([C@@H](C)CO)C[C@H]2C)cc1
  -5.8, -0.9
> C[C@@H]1CN([C@@H](C)CO)C(=O)c2cccc(NC(=O)Nc3ccc4c(c3)OCO4)c2O[C@@H]1CN(C)CC1CCCCC1
  -6.4, -5.8
> CN(C)C(=O)C[C@H]1CC[C@H]2[C@@H](COC[C@H](O)CN2C(=O)c2ccncc2)O1
  9.9, 14.2
> O=C(C[C@@H]1C=C[C@H](NC(=O)C2CC2)[C@@H](CO)O1)NCc1ccncc1
  2.9, -1.5
> Cc1noc(C)c1NC(=O)Nc1ccc2c(c1)CC(=O)N([C@@H](C)CO)C[C@@H](C)[C@@H](CN(C)S(=O)(=O)c1cccs1)O2
  14.0, 9.1
> O=C(C[C@@H]1C[C@@H]2c3cc(NC(=O)NC4CCCCC4)ccc3O[C@@H]2[C@H](CO)O1)NCCc1ccccc1
  7.8, 6.7
> COc1ccc2c3c(n(C)c2c1)[C@H](CO)N(Cc1ccccn1)CC31CCN(Cc2ccccn2)CC1
  5.6, 10.6
> C[C@H]1CN([C@@H](C)CO)C(=O)c2cccc(NC(=O)c3ccc(-c4nccs4)cc3)c2O[C@H]1CN(C)Cc1ccc(C(=O)Nc2ccccc2N)cc1
  -20.0, 0.9
> O=S(=O)(c1ccc(-c2ccccc2)cc1)N1C[C@@H]2N[C@H](C1)[C@@H]2c1ccc(-c2cccnc2)cc1
  ?, .
> C[C@@H]1CN([C@H](C)CO)C(=O)Cc2cc(NC(=O)NC3CCCCC3)ccc2O[C@@H]1CN(C)C(=O)Nc1ccc(C(F)(F)F)cc1
  8.3, 10.0
> C[C@@H]1CN([C@@H](C)CO)S(=O)(=O)c2ccc(/C=C/c3ccccc3)cc2O[C@H]1CN(C)C(=O)Nc1cc(F)ccc1F
  -34.8, -23.8
> C[C@H]1CCCCO[C@H](CN(C)Cc2ccc(C(=O)O)cc2)[C@@H](C)CN([C@@H](C)CO)C(=O)c2cc(NC(=O)C3CCCCC3)ccc2O1
  12.6, 2.5
> COc1ccc(-c2ccc3c(c2)[C@@H]2[C@@H](CCN2C(=O)c2ccc4c(c2)OCO4)[C@H](CO)N3C)cc1
  -32.1, -25.1
> C/C=C/c1ccc([C@@H]2[C@@H](CO)N(C(C)=O)C23CN(C(=O)c2ccccc2)C3)cc1
  ?, .
> COc1ccc(NC(=O)N(C)C[C@@H]2Oc3ncc(C#CCN(C)C)cc3C(=O)N([C@H](C)CO)C[C@H]2C)cc1
  12.7, 6.7

Three records picked at random from those above, as already listed:
Value order: Vaccinia inh, Vaccinia inh Venus
> CCC(=O)Nc1ccc2c(c1)OC[C@@H](C)N(Cc1nccs1)C[C@H](C)[C@@H](OC)CN(C)C2=O
  13.2, 15.0
> CC(C)CC#Cc1ccc([C@H]2[C@H]3CN(C(=O)c4ccc5c(c4)OCO5)CCCCN3[C@H]2CO)cc1
  ?, .
> Cc1noc(C)c1NC(=O)Nc1ccc2c(c1)CC(=O)N([C@@H](C)CO)C[C@@H](C)[C@@H](CN(C)S(=O)(=O)c1cccs1)O2
  14.0, 9.1

Not all compounds are listed; the hit share may differ from the screen's.
